Screening results (PubChem BioAssay)
Menin MLL FP FL: displaces fluorescein MLL peptide from human menin; Fluorescence polarization, fluorescein-MLL peptide displacement from menin; FP activity change, % at 61.4 µM; 290,000 tested, under 10 active; AID 1766; inconclusive = falling polarisation curve, or a change in total fluorescence; inactive = total fluorescence flat and polarisation flat or rising; no compound was filed as active; the % refers to the polarisation; negative = inhibition;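 further: % of control where 0% means no effect; inhibitors lower the polarisation; unlabelled MLL peptide was the positive control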
gsp agonist: gsp mutant agonism; Potency, µM (series often up to 76.9 µM), for the others: at the highest dose activation (cAMP increase), most hits filed as activators; 340,000 tested, 0.13% active; gsp mutant cells, cAMP HTRF, 30 min; control for the full effect not named in the record; active = well fitted activation curve with a large enough effect; inconclusive = small, poorly fitted or top-dose-only effect, or another doubt; inactive = no such curve, though single readings can be large or run the other way; cell line not stated here;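 further: phosphodiesterase inhibitor Ro 20-1724 added with compounds to block cAMP breakdown; potency means the concentration at half of the fitted maximal effect; nearly all actives have a fitted effect of over 60% in size; about a fifth of the inactives were tested at one dose only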
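Cells in DMEM/10% FBS with G418 were pretreated with compounds in DMSO plus […] (300 uM stock) for 30 min at 37C. cAMP was measured by HTRF (cAMP-d2 plus anti-cAMP antibody-K) after 30 min at room temperature.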
ClpP mod: qHTS Assay for Activators of ClpP | ATP-dependent Clp protease proteolytic subunit (Bacillus subtilis (strain 168)), P80244 | purified B. subtilis ClpP, FRET peptide cleavage, 20 min | Potency, µM (top dose mostly 57.5 µM), for inactives: at the highest dose activity change, negative = active | 340,000 tested, 1.9% active | AID 651965, 2013; active = well fitted falling curve with a large enough effect; inconclusive = small, poorly fitted or top-dose-only effect; inactive = no such curve, though single readings can be large or run the other way; further: potency means the concentration at half of the fitted maximal effect; the source files actives as falling curves though it sought activators and does not explain the sign; nearly all actives have a fitted effect of over 65% in size; many hits overshoot -100%
Target sequence (P80244 whole entry, looked up): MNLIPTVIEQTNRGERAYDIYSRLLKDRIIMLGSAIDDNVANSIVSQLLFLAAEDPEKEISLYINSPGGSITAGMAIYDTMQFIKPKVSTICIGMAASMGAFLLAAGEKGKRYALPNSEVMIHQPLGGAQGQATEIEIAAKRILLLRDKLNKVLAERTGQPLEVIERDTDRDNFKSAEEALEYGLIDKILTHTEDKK
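FRET quenching reversal measured ClpP activation: 10 microg/mL B. subtilis ClpP at pH 8 with the FRET-FV decapeptide, read at 430 nm after 320 nm excitation. The 20-min minus 0-min signal was scaled between DMSO/no-enzyme wells and ADEP (5.8 microM final).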
TRPML1 blocker: human mucolipin-1 channel inhibition | Q9GZU1 | TRPML1-inducible cells, Ca2+ dye fluorescence, FDSS; active compounds read low; inhibition of EC80 agonist-evoked calcium signal | activity change, negative = inhibition, % (concentration not given with the values) | 390,000 tested, 0.02% active | AID 624415; in the data active means activity change below about -50%; inconclusive means about -30% to -50%; inactive means above about -30%;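 further: stimulus is agonist 54-4 at its EC80 concentration; on the % scale 0 is the no-effect control and ±100 the full control effect; the text of the record puts the active cut at -80%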
Target sequence (Q9GZU1 whole entry, looked up): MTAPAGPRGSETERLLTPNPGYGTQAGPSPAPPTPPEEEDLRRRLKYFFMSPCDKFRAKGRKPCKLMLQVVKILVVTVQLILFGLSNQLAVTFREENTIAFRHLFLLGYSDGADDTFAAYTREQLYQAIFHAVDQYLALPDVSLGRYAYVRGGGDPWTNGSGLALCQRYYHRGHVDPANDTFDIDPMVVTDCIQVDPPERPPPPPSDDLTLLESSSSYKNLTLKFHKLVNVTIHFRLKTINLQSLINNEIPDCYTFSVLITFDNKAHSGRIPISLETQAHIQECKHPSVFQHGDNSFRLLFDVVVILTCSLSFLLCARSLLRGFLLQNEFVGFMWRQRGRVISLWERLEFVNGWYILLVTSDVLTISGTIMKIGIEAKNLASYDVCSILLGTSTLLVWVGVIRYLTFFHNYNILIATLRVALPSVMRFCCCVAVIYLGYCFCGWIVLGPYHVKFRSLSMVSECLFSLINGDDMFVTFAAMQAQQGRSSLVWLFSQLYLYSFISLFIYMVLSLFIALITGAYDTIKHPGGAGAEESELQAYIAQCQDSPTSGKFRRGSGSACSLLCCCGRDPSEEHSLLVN
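Tet-induced TRPML1-DL cells loaded with Ca8 no-wash calcium dye were read kinetically on FDSS. Compound addition was followed by EC80 agonist 54-4 (4 uM final); inhibition was read over 110 s.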
TRPML1 agonist: agonists of human TRPML1 channel. 410,000 tested, 0.12% active. TRPML1-expressing cells, Ca2+ dye fluorescence, FDSS; host cell line not named in the record; reference of the full effect not given here. activation, % (test concentration not listed); in the data active = activation above about 50%; inconclusive = about 30% to 50%; inactive = below about 30%; further: 0% is about no effect; the text of the record puts the active cut at 80%
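Kinetic FDSS Ca2+ read in Tet-induced TRPML1-DL cells (ABD Ca8 dye plus quencher, 45-90 min RT loading): baseline, then compound, then 110 s agonist window; EC80 agonist 54-4 at 4uM final added afterwards for a 110 s antagonist window.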
gsp antagonist: antagonizes gsp, the McCune-Albright syndrome mutation. 340,000 tested, 0.4% active. gsp-mutant cells, cAMP HTRF, 30 min; control for the full effect not named in the record. Potency, µM (doses to about 76.9 µM), for inactives: at the top dose activity change, negative = inhibition, actives largely listed as inhibitors; active = falling curve of any shape with a large fitted effect; inconclusive = falling curve, mostly with a smaller effect; inactive = flat or rising curve; cell line not stated here;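 further: intracellular cAMP measured with PDE inhibitor Ro 20-1724 present during compound exposure; potency means the concentration at half of the fitted maximal effect; on the % scale 0 is the no-effect control and ±100 the full control effect; nearly all actives have a fitted effect of over 65% in size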
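Cells, 2000/well, grown 16–24 h in DMEM 10% FBS with 0.5 mg/ml G418, then compounds plus […] (300 uM addition stock), 30 min at 37C. cAMP read by HTRF (cAMP-d2 and anti-cAMP antibody-K in lysis buffer) after 30 min RT.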
Active calls of the source: *; u = inconclusive; x = not tested or not shown; [ ] = dose if it differs, or a comment.

No.	molecule	Menin MLL FP FL	TRPML1 agonist	gsp agonist	gsp antagonist	TRPML1 blocker	ClpP mod
1	CCCCC(=O)N1CCN(c2nc(-c3ccc(F)cc3)cs2)CC1	2.1	1.5	3%[15.4 µM]	u	-2	0.2%
2	CCOc1ccc(CCNC(=O)c2cc3c(-c4ccccc4F)nn(C)c3s2)cc1	x	-0.5	x	x	5	-8.6%
3	CCN(Cc1ccccc1)C(=O)Cn1ncc2c(=O)oc3ccc(C)cc3c21	x	-0.4	x	x	38	1.1%
4	Cn1c(=O)c2c(nc3n2CC(CO)O3)n(C)c1=O (stereo unspecified)	-5.0	-0.5	u	9%	1	x
5	CSc1nnc2ccc(-c3ccccn3)nn12	0.9	x	u	2%	x	0.9%
6	Cc1cc(C2CC(=O)Nc3ccccc3S2)c(C)s1 (stereo unspecified)	0.8	0.8	-3%	0%	-7	0.8%
7	COc1ccc(N2C(=O)C3C4C=CC(C4)C3C2=O)c([N+](=O)[O-])c1 (stereo unspecified)	0.2	0.2	14%	6%	-2	-2.1%
8	Cc1ccc(SCCc2cc[n+](CC(=O)c3ccccc3)cc2)cc1	-2.2	-0.5	17%[15.4 µM]	1%	-18	x
9	O=C(CNC(=O)c1ccco1)NC1CCCCCC1	x	1.0	-19%[15.4 µM]	11%	-15	x
10	CC(Oc1ccc(Cl)cc1)C(=O)N1CCN(C(=O)c2ccco2)CC1 (stereo unspecified)	x	-0.5	0%	7%	88	1.0%
11	CCNC(=O)C1CCCN(C(=O)c2ccc(-c3ccccc3)cc2)CC1 (stereo unspecified)	x	0.8	x	x	24	0.4%
12	C[C@H](CO)N1C[C@H](C)[C@@H](CN(C)C(=O)Nc2ccc3c(c2)OCO3)Oc2ccc(NC(=O)Cc3ccccc3)cc2C1=O	x	-0.8	8%	0%	-9	2.8%
13	C=CCn1c(SCc2cc(=O)n3ccsc3n2)nc2sc(C)c(C)c2c1=O	-2.2	1.0	-27%	5%	-27	0.5%
14	COC(=O)c1cc(C)sc1NC(=O)CCCC(=O)O	1.0	-0.8	1%	-13%	-5	-11%
15	CC(C)(C)c1ccc(NC(=O)Nc2ccc(F)cc2)cc1	-3.0	0.3	16%[15.4 µM]	-7%	1	x
16	N#Cc1ccccc1OCC(=O)OCC(=O)NC1CCCC1	x	0.3	20%	-2%	2	-1.2%
17	Clc1ccc(C2=Nn3c(nnc3-c3cccnc3)SC2)s1	-1.3	-0.3	8%	2%	2	-2.6%
18	Cc1ccccc1OCc1nnc(SC(C)C(=O)O)n1Cc1ccccc1 (stereo unspecified)	u	-0.2	10%	-3%	5	x
19	O=C(Nc1ccc(C(=O)O)cc1)/C(=C\c1ccccc1)NC(=O)c1ccc(Br)cc1	x	-0.3	-46%[inhibitor]	-20%	10	-1.7%
20	CN1CCN(C(c2ccc(F)cc2)c2nnnn2Cc2cccs2)CC1 (stereo unspecified)	-1.1	0.0	-6%	-3%	12	0.1%
21	COc1ccccc1CNc1nc2ccc(Cl)cc2n2cnnc12	x	0.3	x	x	2	-2.0%
22	Cc1cc(C)cc(OCc2nnc(SCC(=O)c3ccc(Br)cc3)o2)c1	1.8	4.2	-7%	5%[15.4 µM]	15	-1.6%
23	Cc1c(C(=O)OCC(=O)N2CCCC2=O)oc2ccccc12	x	0.3	31%[15.4 µM]	1%	9	x
24	COc1cccc(C(=O)COc2ccc(NC(=O)c3cccs3)cc2)c1	x	2.7	u	-3%	-1	u
25	CC(C)CN(C(=O)CSc1ncnc2ccccc12)C1CCS(=O)(=O)C1 (stereo unspecified)	x	0.6	-4%	-14%	9	1.5%
26	CCC(Cc1ccccc1)NC(=O)CCNS(=O)(=O)c1cc(Br)cnc1N (stereo unspecified)	x	0.0	-48%[inhibitor]	3%	-6	u
27	CN(C(=O)c1cccs1)c1ccc(OCC(=O)N2CCC(C(N)=O)CC2)cc1	-5.4	1.1	16%	11%	10	1.9%
28	Cn1nc(-c2ccc(OCC(=O)Nc3cccc(C(F)(F)F)c3)cc2)c2ccccc2c1=O	x	3.1	x	x	7	4.9%
29	CCOC(=O)C1CCN(S(=O)(=O)c2cc(C(=O)N3CCCCC3)ccc2OC)CC1	x	-0.6	9%	2%	-5	2.4%
30	CC(=O)N1CCN(Cc2ccc(Br)s2)CC1	2.2	-0.1	18%	-2%	-1	0.2%

Some of these compounds in order of SMILES length, low to high:
No.	molecule	Menin MLL FP FL	TRPML1 agonist	gsp agonist	gsp antagonist	TRPML1 blocker	ClpP mod
5	CSc1nnc2ccc(-c3ccccn3)nn12	0.9	x	u	2%	x	0.9%
6	Cc1cc(C2CC(=O)Nc3ccccc3S2)c(C)s1 (stereo unspecified)	0.8	0.8	-3%	0%	-7	0.8%
4	Cn1c(=O)c2c(nc3n2CC(CO)O3)n(C)c1=O (stereo unspecified)	-5.0	-0.5	u	9%	1	x
22	Cc1cc(C)cc(OCc2nnc(SCC(=O)c3ccc(Br)cc3)o2)c1	1.8	4.2	-7%	5%[15.4 µM]	15	-1.6%
26	CCC(Cc1ccccc1)NC(=O)CCNS(=O)(=O)c1cc(Br)cnc1N (stereo unspecified)	x	0.0	-48%[inhibitor]	3%	-6	u
27	CN(C(=O)c1cccs1)c1ccc(OCC(=O)N2CCC(C(N)=O)CC2)cc1	-5.4	1.1	16%	11%	10	1.9%

(list continues)
No.	molecule	Menin MLL FP FL	TRPML1 agonist	gsp agonist	gsp antagonist	TRPML1 blocker	ClpP mod
31	CN1CCC(N(C)S(=O)(=O)c2ccc(NC(=O)COc3cccc(Cl)c3)cc2)CC1	x	0.4	-21%	0%	14	-2.2%
32	CC(Oc1ccccc1)C(=O)N1CCC2(CC1)Oc1ccc(F)cc1C(=O)C21CC(c2cccnc2)=NO1 (stereo unspecified)	x	-1.0	x	u	-3	-3.0%
33	COC(=O)[C@H](CC(C)C)NC(=O)Cn1cnc2c(SC)nc(N)nc21	x	-0.6	x	-1%	1	4.7%
34	CC(C)CC(NC(=O)C1CCC(C)CC1)C(=O)NCc1cccnc1 (stereo unspecified)	1.4	-0.7	-15%	2%	14	-0.3%
35	S=C(c1ccc(Cl)cc1)N1CCN(Cc2ccccc2)CC1	-1.0	-0.4	-6%	-3%	-4	x
36	COc1ccccc1C(=O)NCCC(=O)N1CCN(C(C)=O)CC1	x	0.6	6%[15.4 µM]	-10%	6	-3.4%
37	Cc1ccc(OCCNC(=O)c2ccc(COc3ccccc3)o2)cc1	x	1.3	-48%[inhibitor]	-20%	-7	2.3%
38	Cc1ccc(S(=O)(=O)N2CCOCC2)cc1NC(=O)Cn1cc(C(F)(F)F)cc(Cl)c1=O	2.7	1.5	30%	-1%	3	1.6%
39	COc1ccc(C(C(=O)NC2CCCC2)N(C(=O)c2ccoc2C)c2ccccc2)cc1 (stereo unspecified)	12	1.0	0%	-12%	7	2.0%
40	Cc1cc(C)n(CCC(=O)N/N=C/c2ccc(O)cc2)n1	3.8	0.4	u	12%	6	0.4%
41	COc1cc2[nH]c(=S)nc(NCc3ccccn3)c2cc1OC	u	-0.5	16%[15.4 µM]	-19%	-9	x
42	CCN1CCN(Cc2oc(CO)cc(=O)c2O)CC1	0.8	-0.2	0%	6%	0	0.9%
43	COc1ccc(N2CCN(C(=O)Cc3ccc(S(=O)(=O)N4CCOCC4)s3)CC2)cc1	14	0.2	-7%[15.4 µM]	-13%	45	x
44	CCNS(=O)(=O)c1ccc(CCC(=O)N2CCc3ccccc3C2)cc1	0.5	0.9	-22%	4%	13	-3.6%
45	CCc1ccc(C2C(C(=O)Nc3ccccc3C)=C(C)Nc3nc(SCc4cccc(OC)c4)nn32)cc1 (stereo unspecified)	x	1.3	x	x	12	-0.7%
46	CCCC(=O)c1c(C)c2ccccc2n1C	5.6	1.3	-21%	-8%	-8	-2.9%
47	Cc1cc2cccc(C)c2nc1SCC(=O)NNC(=O)c1ccco1	-4.4	0.6	14%[15.4 µM]	0%	7	-2.5%
48	COc1ccc([N+](=O)[O-])cc1N(CC1CO1)S(=O)(=O)c1ccc(C)cc1 (stereo unspecified)	-1.4	-0.6	7%	-7%	7	x
49	NC(=NCCc1c[nH]c2ccccc12)NS(=O)(=O)c1ccc2ccccc2c1	11	-0.8	-4%	-7%	35	-2.3%
50	Cc1cccc(N2CCN(CC(=O)NCc3ccccc3)CC2)c1C	-3.8	x	-8%	-6%	x	-1.3%
51	CCCOc1ccc(C2c3c(oc4cc(C)c(C)cc4c3=O)C(=O)N2CCCN2CCOCC2)cc1 (stereo unspecified)	10	-0.2	-20%	-3%	3	-0.1%
52	CC(C)Oc1cc(NC(=O)CSCC(=O)Nc2cccc(C(F)(F)F)c2)c(Cl)cc1Cl	4.6	1.7	-2%	-7%	1	-0.7%
53	CCCn1c(C)cc(C(=O)CSc2nc3nc(C)cc(C)n3n2)c1C	9.3	-0.8	10%	-9%	-8	-1.2%
54	O=C(Nc1cccc([N+](=O)[O-])c1)Nc1ccc2c(c1)CCC2	1.2	2.2	-7%	u	6	-2.5%
55	Cc1ccc(Cn2c(CN3CCC(C(=O)NCc4ccccc4C)CC3)cc3ccccc32)cc1	x	1.5	x	x	10	-23%
56	CCN1CCN(CCCCOc2ccccc2F)CC1	2.9	-0.2	3%	4%	19	2.2%
57	CCn1cnc2c1c(=O)n(CC(=O)OC)c(=O)n2Cc1ccccc1	2.3	0.4	6%	-5%	-7	-2.3%
58	CC(CN(C)Cc1ccccc1)OC(=O)c1cccs1 (stereo unspecified)	2.1	0.7	20%	-7%	-8	0.9%
59	CC(C)Cn1c(N)c(S(=O)(=O)c2cccs2)c2nc3ccccc3nc21	0.6	0.1	22%	3%	-2	u
60	CC1(C(=O)Nc2cccc(S(=O)(=O)N3CCOCC3)c2)Cc2ccccc2C(=O)O1 (stereo unspecified)	1.2	0.0	19%	2%	-5	-1.5%
